E coli growth: E. coli growth inhibition, primary screen, OD600. Escherichia coli growth, 23 h; active compounds read low. OD600 absorbance (concentration not given with the values). 330,000 tested, 0.21% active. AID 1053175, 2014;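 active = OD600 absorbance below the run mean of sample wells minus 3.6 SD, in any replicate, cut at about 0.56 in these data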;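 note: stock transfer was 300 nL into about 60 µL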
Beta2AR agonist: beta2AR agonists driving receptor internalization, primary screen, cell-based, FAP fluorogen, flow cytometry; Am2.2-beta2AR cells; reference of the scale not given here; AID 504454, 2011; Beta-2 adrenergic receptor (Homo sapiens), P07550; 340,000 tested, 0.43% active; response, % (test concentration not listed);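 active = response above a set limit, near 3 SD of response in nonfluorescent compounds, cut at about 42% in these data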;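 note: stock transfer was 100 nL into about 11 µL; a reference agonist was the positive control; negative values mostly stem from fluorescent compounds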
Target sequence (P07550 whole entry, looked up): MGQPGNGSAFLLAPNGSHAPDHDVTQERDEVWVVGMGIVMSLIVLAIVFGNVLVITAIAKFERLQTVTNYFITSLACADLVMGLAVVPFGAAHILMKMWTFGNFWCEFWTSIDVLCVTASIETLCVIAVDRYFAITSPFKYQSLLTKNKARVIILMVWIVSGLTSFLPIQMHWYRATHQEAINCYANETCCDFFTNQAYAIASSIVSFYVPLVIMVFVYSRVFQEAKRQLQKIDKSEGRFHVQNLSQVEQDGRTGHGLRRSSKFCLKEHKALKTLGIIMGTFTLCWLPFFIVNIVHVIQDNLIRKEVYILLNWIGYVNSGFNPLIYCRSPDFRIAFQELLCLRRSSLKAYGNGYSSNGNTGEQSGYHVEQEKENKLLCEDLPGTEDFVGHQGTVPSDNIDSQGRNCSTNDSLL
HNF4A DNA FP: change in binding of human HNF4A to DNA, primary screen, biochemical, fluorescence polarization, FITC-DNA; Hepatocyte nuclear factor 4-alpha (Homo sapiens), P41235; 1 h; activity change, % at 10 µM; 360,000 tested, 0.3% active; in the data active = activity change above about 30%, passing the limit was not always enough;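 note: controls were the assay level and a saturating level of protein; the project sought stronger binding though the title names inhibitors; some compounds called inactive have numbers as strong as hits; positive values seem to mean higher polarization but the record does not say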
LANA-H2A inh: blockers of LANA interaction with H2A/H2B – biochemical, FP readout, HTS, primary screen; Protein LANA1 (Human herpesvirus 8 type P (isolate GK18)), Q9QR71; cell-free LANA-H2A/H2B peptide, fluorescence polarization; inhibition, % (test concentration not listed); 320,000 tested, 0.6% active; in the data active = inhibition mostly above about 10%, no sharp cut-off; inactive = mostly below about 6.7%;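 note: stock transfer was 7.5 nL into about 10 µL; 0% = median of vehicle wells and 100% = median of positive control wells; one replicate is shown; the record names a cut of 25% in any replicate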
ALR H2O2 inh: inhibitors of human ALR sulfhydryl oxidase, primary screen, biochemical, H2O2 detection, HRP-luminol luminescence, single point; FAD-linked sulfhydryl oxidase ALR (Homo sapiens), P55789; purified ALR, DTT oxidation; inhibition, % (no concentration beside the values); 290,000 tested, 3.8% active; AID 485317, 2010;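 active = mean and each replicate at 75% or more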;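 note: stock transfer was 7.5 nL into about 7.5 µL; 0% = neutral wells and 100% = wells with inactivated enzyme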
UCH37 inh: inhibitors of human UCH37 deubiquitinase, primary screen, biochemical, Ub-AMC cleavage, fluorescence. Ubiquitin carboxyl-terminal hydrolase isozyme L5 (Homo sapiens), Q9Y5K5. purified proteasome/UCH37. 330,000 tested, 0.33% active. inhibition, % (test concentration not listed);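 active = mean of two replicates above 20%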;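 note: 0% = compound-free wells with enzyme and 100% = wells lacking proteasome; stock transfer was 100 nL into about 20 µL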
Target sequence (Q9Y5K5 whole entry, looked up): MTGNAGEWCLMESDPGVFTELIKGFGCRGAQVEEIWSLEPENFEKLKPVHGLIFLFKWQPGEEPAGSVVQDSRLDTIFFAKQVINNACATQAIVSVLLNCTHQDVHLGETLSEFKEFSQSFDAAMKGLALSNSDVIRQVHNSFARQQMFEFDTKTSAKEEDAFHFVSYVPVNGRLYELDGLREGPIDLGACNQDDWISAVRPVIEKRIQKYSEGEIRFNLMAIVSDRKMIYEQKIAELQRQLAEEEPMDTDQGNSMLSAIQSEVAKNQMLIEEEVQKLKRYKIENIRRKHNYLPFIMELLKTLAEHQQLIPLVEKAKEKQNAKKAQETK
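Material: human UCH37 enzyme supplied as purified proteasome complex / Amount: 0.15 nM proteasome as dispensed / Buffer or medium: pH 7.4 Tris-HCl (50 mM) with ovalbumin, ATP-MgCl2, DTT / Times: preincubation 30 min, reaction 25 min, room temperature / Technique: AMC fluorescence from Ub-AMC cleavage, excitation 355 nm, emission 460 nm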
FGF22 binding: binders of human FGF22 protein, primary screen, FGF22 synaptogenesis inhibitor project, biophysical, thermal shift, single point; Fibroblast growth factor 22 (Homo sapiens), Q9HCT0; calls only at 9.99 µM; 340,000 tested, 1.5% active; AID 651658, 2012; recombinant FGF22 thermal shift, SYPRO orange fluorescence; percent of sucrose octasulfate shift, DMSO zero;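 active = melting point raised past a set limit in the mean and every replicate; three in four hits are not shown here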
Target sequence (Q9HCT0 whole entry, looked up): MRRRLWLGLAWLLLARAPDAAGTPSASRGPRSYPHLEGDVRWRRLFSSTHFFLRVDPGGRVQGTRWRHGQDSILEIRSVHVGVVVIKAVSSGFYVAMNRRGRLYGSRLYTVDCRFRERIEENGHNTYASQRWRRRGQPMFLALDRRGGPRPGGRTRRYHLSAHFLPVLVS
Active calls of the source: *; i = inactive; . = no result given. An excerpt; count on the stated rates, not on these rows.

Compound | FGF22 binding | LANA-H2A inh | ALR H2O2 inh | E coli growth | Beta2AR agonist | HNF4A DNA FP | UCH37 inh
COc1ccc(OC)c(S(=O)(=O)n2ccnc2C)c1 | . | 5.9 | . | 0.727 | -0.7 | -1.9 | 1.9
CCOC(=O)/C(C(N)=NCC(C)C)=C(/O)c1ccccc1 | . | 4.0 | -4.1 | 0.649 | -5.8 | 3.4 | 0.1
COc1ccc(NC(=O)C2CCN(S(=O)(=O)c3ccc(OC)c(OC)c3)CC2)c(OC)c1 | . | 0.6 | -2.2 | 0.627 | 10.5 | 0.8 | -2.8
Cc1ccc(S(=O)(=O)NC2CCCc3ccccc32)cc1C (stereo unspecified) | . | -1.4 | -3.0 | 0.723 | 4.4 | -1.7 | -0.8
O=C(C1CCN(c2nc(-c3ccccc3)nc3c2CCC3)CC1)N1CCC(O)CC1 | i | 0.5 | -6.7 | 0.69 | -23.6 | -1.6 | 1.7
COc1ccc(S(=O)(=O)c2ccc(OCC3CO3)cc2)cc1 (stereo unspecified) | i | 6.7 | -0.4 | 0.741 | 11.9 | 3.2 | 1.6
Cc1ccccc1-n1nnnc1SC1CCOC1=O (stereo unspecified) | . | -2.0 | -1.0 | 0.707 | -2.7 | 2.0 | 1.2
COc1ccccc1CN1C[C@@H]2C[C@@H](C3=Cc4cc(Cl)ccc4OC3)N3CCC[C@@]23C1=O | i | 2.4 | 17.7 | 0.706 | -3.8 | 1.5 | 2.3
O=C(COC(=O)c1ccc(O)cc1O)Nc1ccc2c(c1)OCCO2 | i | -2.9 | 7.4 | 0.636 | -3.0 | 3.4 | 0.6
Cc1ccc2c(c1)N(C(=O)c1ccco1)C(C)(C)c1ssc(=S)c1-2 | . | 2.1 | 1.0 | 0.819 | 1.5 | -4.2 | 1.7
COc1ccc(NC(=S)N(CCO)Cc2cc3c(C)cc(C)cc3[nH]c2=O)cc1 | i | 3.0 | -5.5 | 0.704 | -6.0 | 8.3 | 5.7
CC(OC(=O)COc1ccc(C#N)cc1)C(=O)c1ccccc1 (stereo unspecified) | i | -0.2 | 7.6 | 0.612 | -3.4 | 0.6 | -0.1

Next results follow:
Compound | FGF22 binding | LANA-H2A inh | ALR H2O2 inh | E coli growth | Beta2AR agonist | HNF4A DNA FP | UCH37 inh
O=C(Nc1cccc(Cl)c1Cl)c1ccccc1OCC(=O)N1CCOCC1 | i | -3.4 | -1.9 | 0.684 | 2.0 | -0.3 | 1.0
Cc1cccc2sc(NC(=O)c3ccc(Cl)s3)nc12 | i | -0.9 | 96.7* | 0.764 | 11.4 | 8.3 | -44.9
S=C(Nc1ccc(Cl)cc1Cl)Nn1cnnc1 | i | -2.4 | -4.7 | 0.685 | -3.9 | 1.0 | -1.6
CC(C)(C)c1ccc(C2C(C(=O)c3ccco3)=C(O)C(=O)N2CC2CCCO2)cc1 (stereo unspecified) | i | -4.6 | . | 0.709 | 1.7 | 5.3 | 6.2
COc1c(Br)cc([N+](=O)[O-])c(OC)c1C(=O)NC(=O)Nc1nc(C)cc(C)n1 | i | -0.7 | -9.2 | 0.681 | -0.8 | 1.2 | 4.3
COC(=O)c1cc(OC)nc2ccc(Br)cc12 | i | -3.2 | -3.4 | 0.666 | 0.8 | -0.8 | 6.4
COc1ccc(C2/C=C\CN(Cc3ccco3)CC(=O)N2Cc2ccc(F)cc2)cc1 (stereo unspecified) | i | -3.4 | . | . | 5.7 | 3.1 | 3.4
O=C(CSc1nnc(-c2ccc(Cl)s2)o1)N1CCc2ccccc21 | . | -3.2 | -6.0 | 0.749 | . | . | -6.2
CN1C(=O)[C@@H]2[C@@H]3C[C@@H]([C@H]4ON=C(c5ccc(Cl)cc5Cl)[C@@H]34)[C@@H]2C1=O | . | 3.3 | -2.7 | 0.729 | -8.6 | 1.8 | 0.4
COc1ccc(Nc2cc(Cl)ccc2C(=O)O)cn1 | i | 6.2 | 98.7* | 0.675 | -0.6 | -8.1 | 4.4
CN=Cc1c(NC)nc2c(C)cccn2c1=O | . | . | . | 0.689 | -3.1 | 1.3 | -112.4
O=C(OCC(=O)N1CCOCC1)c1ccc(N2CCOCC2)c([N+](=O)[O-])c1 | i | -1.1 | 7.1 | 0.713 | -0.6 | 1.1 | -0.2

Continued:
Compound | FGF22 binding | LANA-H2A inh | ALR H2O2 inh | E coli growth | Beta2AR agonist | HNF4A DNA FP | UCH37 inh
Cc1ccc(-n2c(C)cc(C(=O)OCC(=O)N3CCOCC3)c2C)cc1 | i | 4.9 | -3.7 | 0.688 | 5.8 | 5.3 | 5.5
O=C(Oc1cccc([N+](=O)[O-])c1)N1CCCCC1 | i | 7.2 | -15.9 | 0.739 | 0.4 | -1.0 | 5.1
CCN1CCCC1CNCc1cc(OC)c(OC)c(OC)c1 (stereo unspecified) | i | 2.5 | 2.0 | 0.647 | 9.6 | 0.2 | 0.9
O=C(NN=Cc1cc([N+](=O)[O-])ccc1O)c1cccc2ccccc12 | i | . | . | . | -1.5 | -7.2 | .
CCCCC(=O)N1C/C=C\[C@H](c2ccc(OC)cc2)N(Cc2ccc(F)cc2)C(=O)[C@@H]1C | i | -2.2 | . | . | -0.8 | -2.0 | 1.9
NCC12CC3CC(CC(O)(C3)C1)C2 | i | 2.4 | -4.3 | 0.66 | 7.5 | 1.0 | 2.2
O=C(C1=C[C@@H](C2CC2)C[C@@H](OCCCCO)O1)N1CCOCC1 | i | 4.0 | -1.7 | . | -3.5 | 1.4 | 4.9
Cc1c(/C=N/O)c2ccccn2c1C(=O)c1ccc(F)cc1 | i | 1.6 | 17.2 | . | 11.4 | 2.0 | .
COc1cc(NS(=O)(=O)c2ccc(NC(=O)/C(=C\c3ccccc3OC)NC(=O)c3ccccc3)cc2)nc(OC)n1 | i | -0.4 | -0.9 | 0.701 | -0.9 | -1.0 | 3.7
Cc1cc(Cl)ccc1NC(=O)/C=N/O | i | -6.4 | 9.8 | . | 0.0 | -2.6 | .
CCOC(=O)C(NCc1ccc(OC)cc1)(NC(C)=O)C(F)(F)F (stereo unspecified) | i | 1.2 | 2.2 | 0.724 | 5.8 | -1.3 | 2.1
Nc1c(Cl)ncnc1NCCO | i | 0.7 | . | 0.678 | 0.9 | -1.0 | -1.0

Continuation:
Compound | FGF22 binding | LANA-H2A inh | ALR H2O2 inh | E coli growth | Beta2AR agonist | HNF4A DNA FP | UCH37 inh
O=C1c2ccccc2NC(c2cccc(Cl)c2)N1N=C1CCCCCC1 (stereo unspecified) | . | 3.8 | 0.6 | 0.637 | 5.8 | -2.8 | -95.9
Cc1cc(C)c(C#N)c(SCc2ccc3c(c2)OCO3)n1 | . | 0.9 | -5.9 | 0.732 | -18.9 | -1.3 | 3.5
CCN1CCN(S(=O)(=O)c2ccc(Cl)c(C(=O)N(CC)Cc3ccccc3)c2)CC1 | i | . | . | 0.668 | 2.9 | -0.5 | 0.3
CCOC(=O)c1ccc(NC(=O)CN(c2ccc(C)cc2)S(=O)(=O)c2c(C)nn(C)c2C)cc1 | . | 2.2 | -6.7 | 0.672 | -10.7 | 2.7 | 0.9
COc1ccc(-c2nc(-c3ccc(Br)cc3)no2)c(OC)c1 | . | 2.4 | 0.6 | 0.682 | -1.3 | 2.3 | 1.4
CCCNC(=O)c1c(O)c2c([nH]c1=O)CCCC2 | i | -2.3 | 0.2 | 0.721 | -11.7 | -2.6 | -0.3
C/C(N)=C(/C#N)C(=O)COC(=O)c1oc2ccccc2c1COC(C)C | i | 9.1 | . | 0.736 | -1.3 | 0.6 | 1.3
COc1cc(OC)cc(C(=O)Nc2c(F)cccc2F)c1 | . | -5.8 | . | 0.734 | 11.4 | 0.7 | 2.1
COc1ccc(C(=O)NC(=S)NNC(=O)c2ccncc2)cc1Br | i | -1.9 | 99.1* | 0.625 | -2.2 | -1.7 | 6.1
N#Cc1cnn(-c2cccc(Cl)c2)c1-n1cccc1 | i | 4.9 | . | 0.694 | -1.4 | -1.7 | 3.4
CCc1ccc2c(COn3nnc4ccc(S(=O)(=O)N(C)C)cc43)cc(=O)oc2c1 | . | -1.9 | 21.4 | 0.74 | 1.8 | -1.4 | 2.6
COCc1cc(=O)n2[nH]c(SC)nc2n1 | . | -8.7 | 4.8 | 0.721 | -0.4 | -2.9 | 1.8

More structures.
Compound | FGF22 binding | LANA-H2A inh | ALR H2O2 inh | E coli growth | Beta2AR agonist | HNF4A DNA FP | UCH37 inh
O=C(CNS(=O)(=O)Cc1ccccc1)NCc1ccccc1 | i | 2.6 | -1.6 | 0.698 | -2.4 | -1.1 | 1.1
CC(OC(=O)c1oc2ccccc2c1CSC1CCCCC1)C(=O)NC(N)=O (stereo unspecified) | . | -1.1 | -14.0 | 0.673 | 2.6 | 0.6 | 4.1
O=[N+]([O-])c1ccc(Nc2ccccc2O)c2nonc12 | i | -5.4 | 99.0* | 0.678 | 13.6 | -0.6 | 10.5
CCN(CC)S(=O)(=O)c1cccc(C(=O)Nc2ccc(C#N)cc2)c1 | . | 1.7 | -15.5 | 0.621 | 16.1 | -0.4 | 1.1
COCCCNC(=O)C1CCCCN1S(=O)(=O)c1ccc(F)cc1 (stereo unspecified) | . | 1.4 | 1.0 | 0.635 | -1.4 | 3.5 | 0.3
O=C(CCc1nnc(C2(c3ccc(Cl)cc3)CCC2)o1)NCCCn1cccn1 | i | -4.2 | -39.3 | 0.679 | -13.6 | 3.8 | -0.3
O=C(CCC1COc2ccccc2O1)NC1CCCCC1 (stereo unspecified) | . | 0.7 | -1.9 | 0.736 | 5.1 | -1.0 | 0.3
Cc1onc(-c2c(F)cccc2Cl)c1C(=O)NC(=S)NCc1cccnc1 | i | 0.6 | 10.1 | 0.731 | -289.1 | 9.9 | 1.7
CC(c1ccccc1)C1OCC(C[N+]2(C)CCCCC2)O1 (stereo unspecified) | i | 5.7 | -0.8 | 0.652 | 1.8 | 2.8 | -0.5
O=C(CN1CCN(CC(=O)Nc2ccc3c(c2)OCO3)CC1)Nc1ccc(F)cc1 | . | -4.3 | -3.0 | 0.681 | 1.0 | 4.3 | 5.1
CCC(C)NC(=O)[C@H]1N2C(=O)c3ccccc3C2SC1(C)C (stereo partly specified) | i | -0.7 | -1.0 | 0.661 | -33.2 | -2.5 | 0.1
CN1c2ccccc2C(O)=C(C(=O)Nc2ccccc2)S1(=O)=O | . | 2.3 | 2.5 | . | 4.1 | -9.5 | .

The results go on.
Compound | FGF22 binding | LANA-H2A inh | ALR H2O2 inh | E coli growth | Beta2AR agonist | HNF4A DNA FP | UCH37 inh
CCOCCCn1c(=S)[nH]c2cc(C(=O)N3CCOCC3)ccc2c1=O | . | -1.2 | -1.1 | 0.666 | 2.4 | 1.4 | 2.1
O=C(Nc1ccccc1)N1CCC(c2nc(-c3ccc(S(=O)(=O)N4CCOCC4)cc3)no2)CC1 | . | -1.4 | -0.7 | 0.698 | 2.9 | 0.1 | 1.2
Cc1cc(C)c(NC(=O)Cn2nc(-c3ccccc3)nc2-c2ccccc2)c(C)c1 | i | -8.7 | . | 0.704 | 0.5 | -0.5 | 4.8
COc1ccc(C(=O)Nc2ccccc2C(=O)NCc2cccnc2)cc1OC | i | 4.6 | -3.6 | 0.707 | -0.7 | -0.3 | 0.1
CCCN(CCC)CC(O)COc1ccccc1C(=O)Nc1ccccc1 (stereo unspecified) | i | -2.4 | 8.2 | 0.689 | -8.2 | 2.9 | 4.4
CCOc1ccc(-c2nc(N)ncc2-c2ccc(OC)cc2)c(O)c1 | . | 1.0 | -1.1 | 0.677 | -9.1 | -2.7 | 3.0

From PubChem BioAssay
